Compound activity as filed in PubChem BioAssay.
ClpP mod: qHTS Assay for Activators of ClpP; ATP-dependent Clp protease proteolytic subunit (Bacillus subtilis (strain 168)), P80244; purified B. subtilis ClpP, FRET peptide cleavage, 20 min; Potency, µM (titrated, usually from 57.5 µM), for the others: top-dose activity change, negative = active; 1.9% of 340,000 active; AID 651965, 2013; active = well fitted falling curve with a large enough effect; inconclusive = small, poorly fitted or top-dose-only effect; inactive = no such curve, though single readings can be large or run the other way; note: potency is the fitted concentration of half-maximal effect; the source files actives as falling curves though it sought activators and does not explain the sign; nearly all actives have a fitted effect of over 65% in size; many hits overshoot -100%
Target sequence (P80244 whole entry, looked up): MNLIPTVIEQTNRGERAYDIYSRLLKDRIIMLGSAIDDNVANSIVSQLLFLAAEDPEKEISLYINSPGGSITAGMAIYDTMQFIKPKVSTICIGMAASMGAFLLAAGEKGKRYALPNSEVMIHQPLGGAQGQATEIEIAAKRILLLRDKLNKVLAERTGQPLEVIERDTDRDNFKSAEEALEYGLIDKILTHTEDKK
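Purified B. subtilis ClpP, 10 microg/mL final in Tris/HCl pH8 with KCl, BSA, glycerol and Tween-20, cleaved an Abz/nitrotyrosine-quenched decapeptide. Fluorescence (ex 320, em 430) was read at 0 and 20 min at room temperature. Delta was normalized to 5.8 microM ADEP and DMSO/no-enzyme controls.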
gsp agonist: qHTS for Agonist of gsp, the Etiologic Mutation Responsible for Fibrous Dysplasia/McCune-Albright Syndrome: qHTS; gsp mutant cells, cAMP HTRF, 30 min; control for the full effect not named in the record; 0.13% of 340,000 active; Potency, µM (titrated, usually from 76.9 µM), for the others: at the top dose activation (cAMP increase), actives largely listed as activators; active = well fitted activation curve with a large enough effect; inconclusive = small, poorly fitted or top-dose-only effect, or another doubt; inactive = no such curve, though single readings can be large or run the other way; cell line not stated here;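 note: phosphodiesterase inhibitor Ro 20-1724 added with compounds to block cAMP breakdown; potency is the fitted concentration of half-maximal effect; nearly all actives have a fitted effect of over 60% in size; about a fifth of the inactives were tested at one dose only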
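Cells in DMEM/10% FBS with G418 were pretreated with compounds in DMSO plus […] (300 uM stock) for 30 min at 37C. cAMP was measured by HTRF (cAMP-d2 plus anti-cAMP antibody-K) after 30 min at room temperature.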
gsp antag: qHTS for Antagonists of gsp, the Etiologic Mutation Responsible for Fibrous Dysplasia/McCune-Albright Syndrome: qHTS; 0.4% of 340,000 active; gsp-mutant cells, cAMP HTRF, 30 min; control for the full effect not named in the record; Potency, µM (series often up to 76.9 µM), for the others: top-dose activity change, negative = inhibition, usual class: inhibitors; AID 624288, 2012; active = falling curve of any shape with a large fitted effect; inconclusive = falling curve, mostly with a smaller effect; inactive = flat or rising curve; cell line not stated here;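 note: intracellular cAMP measured with PDE inhibitor Ro 20-1724 present during compound exposure; potency is the fitted concentration of half-maximal effect; % is set by controls: 0 for no effect and ±100 for the full control effect; nearly all actives have a fitted effect of over 65% in size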
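Cells in G418 medium, seeded 16-24 h, 37C; buffer exchange to DPBS + 1 mM CaCl2, 0.5 mM MgCl2, 0.05% BSA; cpds in DMSO + […] (300 uM stock), 30 min 37C; HTRF cAMP detection.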
Menin-MLL FL inh: qHTS Assay for Inhibitors Targeting the Menin-MLL Interaction in MLL Related Leukemias: Competition With Fluorescein Labeled MLL-derived Peptide | Fluorescence polarization, fluorescein-MLL peptide displacement from menin | FP activity change, % at 61.4 µM | 290,000 tested, under 10 active; inconclusive = falling polarisation curve, or a change in total fluorescence; inactive = total fluorescence flat and polarisation flat or rising; no compound was filed as active; the % refers to the polarisation; negative = inhibition;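 note: % of control where 0% means no effect; inhibitors lower the polarisation; unlabelled MLL peptide was the positive control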
TRPV1 PAM: HTS Assay for Compounds that Act as Potentiators of the Vanilloid Receptor 1 | potentiation, % at 8.33 µM | TRPV1-expressing cells, Fluo-8 calcium influx, capsaicin EC20 potentiation; host cell line not named in the record; control for the full effect not named in the record | Transient receptor potential cation channel subfamily V member 1 (Homo sapiens), Q8NER1 | 0.02% of 320,000 active; active means potentiation above 80%; inconclusive means 30% to 80%; inactive means below 30%; note: 0% is about no effect
Target sequence (Q8NER1 whole entry, looked up): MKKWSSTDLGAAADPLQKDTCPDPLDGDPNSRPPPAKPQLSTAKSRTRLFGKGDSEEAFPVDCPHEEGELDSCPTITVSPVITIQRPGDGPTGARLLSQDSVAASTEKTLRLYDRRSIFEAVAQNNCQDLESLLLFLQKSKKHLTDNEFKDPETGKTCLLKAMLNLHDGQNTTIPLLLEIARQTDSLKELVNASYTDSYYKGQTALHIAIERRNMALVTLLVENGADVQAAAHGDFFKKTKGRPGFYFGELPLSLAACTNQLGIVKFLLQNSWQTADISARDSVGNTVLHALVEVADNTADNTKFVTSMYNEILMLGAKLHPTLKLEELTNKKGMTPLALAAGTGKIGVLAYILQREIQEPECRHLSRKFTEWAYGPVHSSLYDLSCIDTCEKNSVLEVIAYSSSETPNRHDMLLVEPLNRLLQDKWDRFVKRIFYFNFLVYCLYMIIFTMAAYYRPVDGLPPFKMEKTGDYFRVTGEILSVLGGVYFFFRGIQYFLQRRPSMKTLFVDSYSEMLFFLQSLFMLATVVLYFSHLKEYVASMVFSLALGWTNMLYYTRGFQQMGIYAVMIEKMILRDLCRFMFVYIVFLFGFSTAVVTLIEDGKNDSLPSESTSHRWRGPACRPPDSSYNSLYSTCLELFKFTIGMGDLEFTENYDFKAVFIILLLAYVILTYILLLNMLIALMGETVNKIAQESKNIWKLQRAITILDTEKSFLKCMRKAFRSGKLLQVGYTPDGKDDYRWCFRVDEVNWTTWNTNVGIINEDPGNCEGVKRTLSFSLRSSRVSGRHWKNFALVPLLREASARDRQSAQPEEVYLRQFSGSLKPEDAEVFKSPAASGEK
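Fluo-8 calcium influx in TRPV1-expressing cells, kinetic read (ex 480/em 520 nm). Compound added and read 3 min for agonist activity, followed by capsaicin at EC20 final and 2 min further read for enhancement.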
Sfp PPTase inh: qHTS Assay for Inhibitors of Bacillus subtilis Sfp phosphopantetheinyl transferase (PPTase) | Biochemical Sfp PPTase activity, qHTS | Potency, µM, for the others: max response, negative = inhibition, hits mostly inhibitors | 3.5% of 310,000 active; active = well fitted inhibition curve with a large enough effect; inconclusive = small, poorly fitted or top-dose-only effect, or another doubt; inactive = no such curve, though single readings can be large or run the other way;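 note: the enzyme is Sfp with the accession as filed and its product quenches rhodamine fluorescence; potency is the fitted concentration of half-maximal effect; 0% = enzyme reaction without inhibitor and -100% = no enzyme wells; top concentration of the series not given in the record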
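Reaction rates are the 30-min fluorescence difference (ex 525, em 598 nm) in wells containing 15 nM Sfp, 5 uM rhodamine-CoA and 12.5 uM BHQ-2-YbbR at pH 7.6 with 10 mM MgCl2.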
TRPML1 inh: qHTS for Inhibitors of the Human Mucolipin Transient Receptor Potential 1 (TRPML1); TRPML1-inducible cells, Ca2+ dye fluorescence, FDSS; hits give low values; inhibition of EC80 agonist-evoked calcium signal; activity change, negative = inhibition, % (concentration not given with the values); 0.02% of 390,000 active; AID 624415, 2012; in the data active means activity change below about -50%; inconclusive means about -30% to -50%; inactive means above about -30%;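 note: stimulus is agonist 54-4 at its EC80 concentration; % is set by controls: 0 for no effect and ±100 for the full control effect; compound concentration not given in the record; the text of the record puts the active cut at -80%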
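TRPML1-DL cells, Tet-induced overnight (~16 h, 37 °C) at 1,500 cells/well, were loaded with Ca8 no-wash dye plus quencher for 45-90 min at room temperature. Compounds were pinned during FDSS kinetic reading; agonist 54-4 at EC80 (4 uM final) then added.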
Starred values were filed as active, the others as inactive; ? = inconclusive; . = no result given; & = joins results of further samples; [ ] = remark or other dose.

canonical_smiles	ClpP mod	Sfp PPTase inh	gsp antag	gsp agonist	Menin-MLL FL inh	TRPML1 inh	TRPV1 PAM
CCOC(=O)N1C2=NC(C(=O)OC)=C(C(=O)OC)[C@@H]3N(C)c4ccccc4[C@]23C[C@H]1C(=O)OC	0.1%	8.0%&2.7%	11.4%	.	-3.2[11.7 µM]	9.7	-35.2
Cc1cc(-c2ccccc2)n(-c2cc(N/N=C/c3ccccc3O)ncn2)n1	-14.8%	7.4%	0.1%	?	0.5	0.6	2.9
CC(C)N(CCCNC(=O)C1CCN(S(=O)(=O)N2CCOCC2)CC1)Cc1ccccc1	-1.1%	18.2%	-1.5%	-17.7%	0.7	-27.2	4.2
CCOc1ccccc1NC(=O)Cn1cnc2c(nnn2-c2cccc(OC)c2)c1=O	-0.2%	-24.9%	-8.9%	-13.2%	1.0	-1.4	8.0
CC(=O)C1=NN(c2ccccc2)C(c2cccs2)N1c1ccccc1 (stereo not given)	.	9.8%	.	.	?	.	-12.8
COC(C[C@@H]1O[C@H]1[C@@H](O)[C@@H](C)OCc1ccccc1)OC	-2.4%	20.1%	-0.2%	.	-1.3	-3.6	23.4
CCOC(=O)c1cc(-c2cccc(C(F)(F)F)c2)nc2nc(SC)[nH]c(=O)c12	0.0%	0.9%	-8.9%	-6.4%[15.4 µM]	5.5	-13.3	5.2
Nc1nc(COc2ccc(F)cc2Cl)nc(N2CCCCC2)n1	-0.6%	8.1%	-6.5%	23.1%	1.0	28.2	-16.9
CSC1=NSC2=NC(=O)/C(=C\c3coc4ccccc4c3=O)C(=N)N12	-19.2%	-4.0%	?	?	?	-10.1	-4.8
CCO[C@@H]1OC(C(=O)N2CCCCCCC2)=C[C@H](c2ccc3c(c2)OCO3)[C@H]1CCCO	0.1%	2.3%	-1.1%	.	4.2	5.9	8.0
CCCCNC(=O)c1onc(CSc2cccc(F)c2)c1C(=O)O	2.3%	11.6%	-19.1%	-18.3%	0.0	-12.5	8.6
CCN(CC)c1ncnc2sc(C(=O)N3CCN(c4ccc(OC)cc4)CC3)c(C)c12	-2.2%	-10.3%	-3.4%	0.0%	0.1	-14.5	-2.0
CCC(=O)c1cc(Br)ccc1OCC(=O)N1CCN(S(=O)(=O)c2ccccc2)CC1	-1.5%	.	-27.3%	2.5%	.	50.2	.
O=c1c2ccccc2cnn1-c1ccc(Br)cc1	-3.1%	13.6%	-5.7%[15.4 µM]	4.3%	1.8	27.0	6.9
Cn1cccc1C(=O)OCC(=O)NCc1cccs1	0.5%	.	5.4%	12.9%[15.4 µM]	.	11.6	.
CCOC(=O)N1CCN(c2c(NCCc3ccccc3)c(=O)c2=O)CC1	-0.5%	9.8%	9.2%	-3.3%	-3.4	-3.9	5.3
CCOc1cccc(C2C(C(=O)c3cccs3)=C(O)C(=O)N2Cc2cccnc2)c1 (stereo not given)	-0.9%	14.0%	0.0%	8.2%	-1.1	-6.0	-5.7
Cn1nccc1C(=O)NC1CCN(Cc2ccccc2)CC1	1.7%	14.6%	0.0%	?	.	-1.7	3.1
Cc1ccc(N2C(=O)[C@@H]3C(c4cccnc4)=NO[C@@H]3C2=O)c(C)c1	-2.4%	23.7%	5.0%	-4.9%	0.0	29.7	4.3
CN1CCC(NC(=O)c2cc(-c3cccc(Br)c3)nc3ccccc23)CC1	-5.2%	-14.1%	17.5%	-33.3%[inhibitor]	2.6	-0.7	2.0
Cc1cccc[n+]1CC(=O)c1ccc(Cl)cc1	-6.6%	.	5.7%	-1.0%	.	-20.0	.
COc1ccc(CNC(=O)c2ccc(Br)s2)cc1OC	-0.3%	14.3%	5.8%	-3.6%	1.1	-26.0	-2.2
CCN1C(=O)CC(N2CCOCC2)C1=O (stereo not given)	0.3%	22.0%	18.4%	0.0%	2.4	-8.3	0.9
O=C(CSc1nnc(Cc2ccc(Cl)cc2)o1)Nc1ccccc1	-0.4%	-10.4%	-10.6%	-5.3%	6.0	10.0	11.9
O=C(NCc1ccco1)c1cccc(N2CCCC2=O)c1	1.6%	-6.3%	3.3%	-26.7%	1.4	-13.8	18.3
C/C(N)=C(/C#N)C(=O)CSc1nc2ccccc2n1CC(C)C	.	-2.2%	-0.2%	1.3%[15.4 µM]	-2.0	4.5	-21.2
CCOC(=O)N1CCC(NC(=O)CCc2ccccc2)CC1	-0.1%	14.8%	3.2%	-13.7%[15.4 µM]	-4.0	-0.5	-0.3
OCCCn1c(CCNc2nc(-c3ccc(Cl)cc3)cs2)nc2cc(C(F)(F)F)ccc21	-0.9%	.	-3.6%	.	.	-21.6	.
CN(C)S(=O)(=O)N1CCN(c2ccnc3cc(Cl)ccc23)CC1	-0.2%	7.4%	?	18.2%	-5.9	-1.3	-10.5
O=C(C[n+]1cccc(C(=O)Nc2ccccc2)c1)c1ccc([N+](=O)[O-])cc1	.	-2.6%	-2.8%	-20.5%[15.4 µM]	?	2.7	?
COC(=O)C1=C(C)N(CCc2cc(OC)c(OC)c(OC)c2)C(=O)N[C@H]1c1cccs1	.	19.4%&0.5%	.	.	1.5&4.8	.	0.0
CS(=O)(=O)c1nc2c(cc1C#N)CCCC2	-1.0%	-2.9%	7.7%	25.5%	-4.0	4.9	-2.4
COC(=O)CNC(c1ccccc1)c1cc(Br)ccc1NS(=O)(=O)c1ccc(C)cc1 (stereo not given)	0.4%	4.8%	-3.7%	-4.8%	2.4	-18.9	4.2
COCCCn1c(SCC(=O)NNC(=O)c2cccc(O)c2)nnc1-c1ccncc1	.	9.8%	12.4%	-9.2%[15.4 µM]	-3.0	18.5	4.2
CCOC(=O)c1sc(N)nc1C(F)(F)F	.	.	8.1%	-0.2%	.	-6.7	.
O=C(COC(=O)c1ccc([N+](=O)[O-])s1)NNC(=O)c1ccccc1	0.5%	.	3.7%	5.1%	.	-18.7	.
O=c1[nH]c2ccc(NC(=S)Nc3ccc(Cl)cc3Cl)cc2[nH]1	-0.8%	4.4%	7.4%	-1.3%	1.5	-10.2	6.6
COc1ccc(CCNC(=O)CN2CCN(c3cccc(Cl)c3)CC2)cc1OC	-0.4%	-10.8%	-5.4%	8.8%	6.2	5.4	-10.2
O=C(NCc1cccnc1)C1CCCN(Cc2cnn(-c3ccccc3)c2-n2cccc2)C1 (stereo not given)	-1.1%	18.3%	-0.9%	-7.3%	0.0	-5.0	-5.2
COc1ccc(NC(=O)CCCNC(=O)Cn2cnc3sc(C)c(C)c3c2=O)cc1OC	-1.9%	4.2%	-2.0%	13.2%[15.4 µM]	5.7	-4.8	-1.9
Cc1ccc(-c2nc3c(Cl)cc(Cl)cc3c(=O)n2O)cc1	3.1%	17.8%	-7.8%	17.4%	3.3	-3.4	3.6
N#Cc1c(N)nc(SCc2ccncc2)c(C#N)c1-c1cccs1	-2.9%	-0.3%	9.3%	3.8%	4.2	-4.5	0.5
C[C@@H]1CN([C@H](C)CO)C(=O)c2cc(-c3ccc(F)cc3)cnc2O[C@H]1CN(C)C(=O)c1ccc(F)cc1	-3.9%	.	.	-25.7%	.	-4.8	.
O=C(NCc1ccccc1)NC1(C(=O)N2CCCC2)CCCCC1	-3.4%	1.1%	-0.6%	-8.3%	-0.9	3.9	-6.0
COc1ccc(C(=O)Nc2ccc3nc(C)c(C)nc3c2)cc1	3.7%	18.1%	7.6%	20.6%	-2.1	-5.3	-0.6
O=C(Cc1cccc(NC(=O)C2CCN(C(=O)c3ccccc3)CC2)c1)Nc1cccc(C(=O)N2CCCC2)c1	-5.0%	.	4.8%	-18.8%	.	23.1	-12.0
O=C(CN1CCN(Cc2ccc(Cl)cc2)C1=O)NCCN1CCCC1	-3.6%	4.5%	12.8%	23.8%	4.6	5.1	2.1
CCN1CCCC1CNCc1ccc(Cl)cc1Cl (stereo not given)	-0.6%	-1.0%	8.8%	-20.6%	-2.6	13.0	-10.9
CCOC(=O)c1cc2sc(C)cc2n1CC(=O)Nc1cccc(C)c1C	-4.3%	-11.2%	4.1%	?	4.8	8.6	4.4
CCC1S/C(=C(\C#N)C(=O)NCc2ccco2)N(c2ccc(F)cc2)C1=O (stereo not given)	0.9%	25.1µM*	2.3%	12.7%	-12.3	-5.4	-8.6
O=C(Nc1cccnc1)C1COc2ccccc2O1 (stereo not given)	-2.8%	2.9%	12.8%	?	3.4	-2.1	2.4
O=C(O)CCC(=O)N1N=C(c2ccccc2)CC1c1ccc(Br)cc1 (stereo not given)	0.0%	16.1%	39.8µM*	5.8%[15.4 µM]	-3.1	-23.5	8.0
